High-throughput results: PubChem, ICCB-Longwood Screening Facility, Harvard Medical School
MgrA-DNA mod: modulators of Staphylococcus aureus MgrA DNA binding; fluorescence polarization; inhibition, %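 (about 10 µg/mL by stock and volumes)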; hit rate 0.13% among 84,000;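 active means above 50% in either of two replicates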;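 further: 0% = protein plus DNA without compound and 100% = DNA alone without protein; higher means less MgrA bound to DNA so lower polarization; one replicate is shown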
Sa helicase inh: blocks Staphylococcus aureus DNA helicase | purified S. aureus helicase, fluorescence unwinding assay; about half of the hits fall short of the stated cut | hit rate 0.05% among 120,000 | inhibition, %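 (tested at about 80 µM)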;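 active means both duplicates at 50% or more, or one of them with a favoured structure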;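 further: 0% = mean of negative control wells and 100% = mean of positive control wells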
Starred values were filed as active, the others as inactive; nt = not tested or not shown.

smiles | MgrA-DNA mod | Sa helicase inh
Cc1c(C(=O)Nc2ccccc2)cnn1-c1ccc(F)cc1 | -1.2 | nt
COc1cc(F)ccc1S(=O)(=O)N1CCCCC1C (stereo unspecified) | nt | -16
O=C(O)c1ccc(NS(=O)(=O)c2ccc(N3C(=O)CCC3=O)cc2)cc1 | -2.1 | -4
CCCN(CCC)Cc1c(O)ccc2c(=O)c(-c3ccccc3)coc12 | -0.2 | 4
Cn1nccc1NS(=O)(=O)c1ccc(C(C)(C)C)cc1 | 1.5 | nt
Cc1cc(C)cc(N(C(=O)C(C)(C)C)C2C=CS(=O)(=O)C2)c1 (stereo unspecified) | nt | 1
Cc1cc(SCCN2CCOCC2)nc2ccccc12 | -6.9 | 1
COC(=O)/C=C1/NCCCNC1=O | -1.7 | nt
O=C(COc1ccccc1)NC(=S)Nc1ccc2[nH]c(=O)[nH]c2c1 | 2.7 | 14
Cc1cc(C)c2c(c1)CC(C)(C)/C(=N/NC(=O)CC#N)C2=O | nt | -27
CC(=O)OCc1cc(-c2nn(C)c(=O)c3ccccc23)ccc1C | nt | 1
Nc1ccc2c(c1)N1CCN=C1S2 | nt | -10
O=C(O)CNC(=O)CSc1ccc(Cl)cc1 | -4.7 | nt
CCn1cc(SCC(=O)Nc2nc3ccccc3s2)c2ccccc21 | nt | 10
O=S(=O)(c1cccc(-c2cn3ccccc3n2)c1)N1CCCCC1 | -2.3 | 18
CN1/C(=C/C(=O)c2ccccc2)Sc2ccccc21 | nt | -19
O=C(CC1Oc2ccccc2NC1=O)Nc1cc(Cl)cc(Cl)c1 (stereo unspecified) | 1.7 | 16
O=C(c1ccco1)n1nnc2cc(Cl)ccc21 | nt | -21
Cc1nc(-c2ccc3c(c2)OCCO3)cs1 | nt | 1
CC1CCN(S(=O)(=O)c2ccc(NC(=O)Nc3ccccc3)cc2)CC1 | -0.7 | 2
O=C1N/C(=N/N=C\c2[nH]ncc2Br)SC1c1ccccc1 (stereo unspecified) | nt | -11
Cc1ccc(S(=O)(=O)n2nccc2-c2c(C)nc3ccccn23)cc1 | 2.3 | nt
C=CCN(CC=C)C(=O)c1ccc(N2C(=O)c3ccccc3C2=O)cc1 | -0.4 | nt
CC(=O)NCCSc1c(-c2ccc(C)cc2)[nH]c2ccccc12 | nt | -15
O=S1(=O)CC=C(Sc2ccccc2)C1 | -1.1 | nt
CCOc1cc(C=C2C(=O)NC(=S)NC2=O)ccc1OCCOc1ccc(C)cc1 | 27 | nt
Cc1ccccc1N1C(=O)NC(=O)/C(=C\c2cn(CC(=O)N3CCOCC3)c3ccccc23)C1=O | 7.1 | 10
CCc1cccc(NS(=O)(=O)c2ccc3c(c2)N(C)CCO3)c1 | nt | -26
COCCN1C(=O)c2ccccc2C1=O | nt | 29
Cc1sc(N2C(=O)C3C4C=CC(C4)C3C2=O)c(C#N)c1C (stereo unspecified) | nt | 8
O=C(Cn1nnc(-c2ccc(CN3CCOCC3)cc2)n1)Nc1ccccc1F | -1.8 | 1
C=CCc1cccc2cc(C(=O)Nc3cccc(OC)c3)c(=O)oc12 | nt | -16
COC(=O)C1C(=O)C2=C(CC1C)Nc1ccccc1NC2c1ccc(C)cc1 (stereo unspecified) | 0.6 | -1
c1ccc(-c2nc(N3CCCC3)nc(-n3ccnc3)n2)cc1 | 4.5 | 10
O=C(OCC1OC(n2ccc(=O)[nH]c2=O)C(O)C1OC(=O)c1ccccc1)c1ccccc1 (stereo unspecified) | nt | 8
CN(CCOc1ccc(Cl)cc1)Cn1nnc2ccccc2c1=O | nt | -1
Clc1ccc(CCN2COc3cc4c(cc3C2)OCO4)c(Cl)c1 | nt | 38
O=S(=O)(c1ccc(Cl)cc1)c1cnc2cc(-c3ccc(Cl)cc3)nn2c1 | 0.2 | nt
CC(C)N(Cc1ccccc1)C(=O)Cn1c(=O)oc2ccccc21 | nt | 5
O=c1c(-c2cccs2)nc2ccccc2n1C1CCCCC1 | nt | -14
O=C(CCCSc1nc2ccc(Cl)cc2s1)c1ccc(F)cc1 | -2.0 | 3
C=CCn1c(Cc2ccccc2)nc2ccccc21 | nt | -18
CCCCN1C(=O)c2cccc3c(Cl)ccc1c23 | 0.1 | nt
COc1cc2c(C(=O)N3CCCCCC3)cn(C)c(=O)c2cc1OC | -0.7 | 4
CC1CC(C)CN(C(=O)CCCc2nnc3n(C)c(=O)c4sccc4n23)C1 (stereo unspecified) | nt | -32
CC1c2snnc2-c2cc(Cl)ccc2S1(=O)=O (stereo unspecified) | 0.4 | nt
Cc1cccn2c(=O)c3cc(C(=O)NCCCN4CCCC4=O)n(C)c3nc12 | nt | 7
O=C(NCc1ccc(-n2cccc2)cc1)c1cccs1 | -0.3 | 7
CN1CCN(C(=O)CCc2nc3ccccc3n2-c2ccccc2)CC1 | nt | 9
CC1CN(C(=O)COC(=O)c2ccc3ccccc3c2)CC(C)O1 (stereo unspecified) | -2.6 | -17

Next section
smiles | MgrA-DNA mod | Sa helicase inh
O=C(c1csc(-c2ccccc2)n1)N(Cc1ccccn1)Cc1ccccn1 | 0.5 | nt
O=C(CC1NCCN(Cc2ccccc2)C1=O)Nc1ccc(Cl)cc1 (stereo unspecified) | 0.2 | nt
CCn1cnc2cc(NCc3cccc(Br)c3)ccc21 | nt | 24
COc1ccc(Cc2nnc(SCC(=O)Nc3ccc(S(=O)(=O)N4CCCCCC4)cc3)o2)cc1 | -1.8 | 4
O=C(NCc1ccc(-c2csnn2)cc1)C1CC1 | -1.8 | nt
CN(C)/C=N/NC(=O)c1cc(COc2cc(Cl)cc(Cl)c2)on1 | nt | 21
O=S(=O)(N/N=C/c1ccc(Cl)cc1)c1ccc(-c2ccccn2)s1 | -2.0 | nt
O=C(COc1ccccc1)Nc1nccs1 | -0.4 | 10
COc1ccc(CNC(=O)C2CCCN2C(=O)NCc2ccccc2)cc1 (stereo unspecified) | -1.6 | 7
COc1cccc(OC)c1C(=O)Nc1nnc(CC(C)(C)C)s1 | 4.3 | 18
N/C(=N\O)c1cccc([N+](=O)[O-])c1 | 2.8 | nt
N#CC1=C(SCC(=O)Nc2ccc(Br)cc2)NC(=O)CC1c1cccc([N+](=O)[O-])c1 (stereo unspecified) | 15 | nt
Cc1cc2c(cc1S(=O)(=O)N1CCCC1)n(C)c(=O)c(=O)n2C | 0.0 | 9
O=C(NCCN1CCN(C(=O)c2cccc(C(F)(F)F)c2)CC1)c1cccc(C(F)(F)F)c1 | -2.3 | nt
Cc1oc(C(=O)O)cc1CSc1nc2ccccc2[nH]1 | 1.3 | -2
CC(C)Cn1c(=O)c2ccccc2c2ccccc2c1=O | -3.2 | 13
Cc1cc(C(=O)OCC(=O)c2ccc3[nH]c(=O)[nH]c3c2)c2ccccc2n1 | nt | 17
COc1cc(/C=C2/N=C(C)OC2=O)cc(OC)c1OC | -1.2 | nt
CC1(C)OC(=O)C(=CNc2ccccc2)C(=O)O1 | 0.2 | 8
Cc1ccc(C(=O)c2ccccc2C(=O)O)c(C)c1 | -4.8 | 21
CCn1c(N)c(C(=O)NC)sc1=S | nt | -4
CCC1(O)CC(C(=O)OC)=NN1C(=O)c1ccccc1 (stereo unspecified) | 1.4 | -9
O=C(O)Cn1c(=O)c(F)cn(C2CCCO2)c1=O (stereo unspecified) | nt | -6
N#Cc1ccccc1CNCc1cccs1 | -5.4 | 9
CC(=O)Nc1sc2c(c1C(=O)O)CCCC2 | 0.2 | -1
NC(=O)CC12CC3CC(C1)CC(C(N)=O)(C3)C2 | 0.6 | 2
c1ccc(Cc2ccc[n+](Cc3ccccn3)c2)cc1 | -0.5 | -1
Nc1c(-c2nn[nH]n2)cnn1-c1cc(Cl)cc(Cl)c1 | 1.8 | nt
Nc1ccc(Oc2ccc3ccccc3c2Cl)c(Cl)c1 | 0.9 | -13
COC(=O)c1ccccc1NC(=O)N1CCC(CN2CCc3ccccc3C2)CC1 | 6.8 | 5
CCOc1ccccc1C(=O)NCc1ccc2c(c1)OCO2 | -1.6 | 11
COC(=O)c1ccc2ncccc2c1 | -1.3 | nt
O=C1c2ccccc2C(=O)N1CN1CCSCC1 | nt | -10
CCn1c(=O)c(C(=O)Nc2ccc(I)cc2)c(O)c2ccccc21 | 0.8 | nt
O=C(N/N=C/c1cn(-c2ccccc2)nc1-c1cccs1)c1cccs1 | nt | -2
CCOc1ccccc1NC(=O)CS | 6.8 | 23
Cc1cc(NC(=O)c2ccc3nonc3c2)no1 | 1.9 | nt
O=C1CN(C(=O)CCC(=O)c2ccc(Br)cc2)CCN1 | nt | -7
CSc1nsc(SC)c1C(=O)Oc1ccccc1N1CCOCC1 | 0.9 | nt
CCCc1cc(=O)n(-c2nc3ccccc3s2)[nH]1 | nt | 2

For reference, some entries already given:
smiles | MgrA-DNA mod | Sa helicase inh
Cc1cc(NC(=O)c2ccc3nonc3c2)no1 | 1.9 | nt
O=C1CN(C(=O)CCC(=O)c2ccc(Br)cc2)CCN1 | nt | -7
CSc1nsc(SC)c1C(=O)Oc1ccccc1N1CCOCC1 | 0.9 | nt
CCCc1cc(=O)n(-c2nc3ccccc3s2)[nH]1 | nt | 2

Later entries:
smiles | MgrA-DNA mod | Sa helicase inh
Cc1nn(-c2ccccc2)c(N2CCCC2)c1/C=N/N=c1\sc2ccccc2n1C | nt | 17
CCOC(=O)c1sc(NC(=O)COc2ccccc2)c(SC#N)c1C | nt | -45
CCc1ccc(NC(=O)Nc2nnc(N3CCCCC3)s2)cc1 | nt | 3
Nc1ccc2oc3c(c2c1)CCCC3 | -0.9 | -12
CCC12CN3CC(CC)(CN(C1)C3c1cccc(N)c1)C2=O (stereo unspecified) | nt | -30
CC(=O)n1c(N)nc2ccccc21 | nt | 11
CC12C(=O)N(c3ccc(I)cc3)C(=O)C1C1C=CC2C1 (stereo unspecified) | 0.7 | 15
O=C(N/N=C\c1cccnc1)c1n[nH]c2c1CCCC2 | nt | 16
O=C(c1ccc(Cl)s1)N1CCc2ccccc2C1 | 7.6 | 4
Cc1cc(C)n(CC(=O)NCc2ccccc2)c(=O)n1 | nt | 20
O=C1C2CC=CCC2C(=O)N1CCOc1cccc(Br)c1 (stereo unspecified) | nt | 14
Cc1ccccc1Nc1nc(N)nc(COC(=O)CCCN=C2NS(=O)(=O)c3ccccc32)n1 | nt | -6
O=C1COc2ccc(C(=O)NCc3ccc4c(c3)OCO4)cc2N1 | -0.9 | 2
CSc1nnc(SCC(=O)c2ccc3c(c2)OCCO3)s1 | 1.9 | nt
O=C(OCC(=O)N(C1CCCCC1)C1CCCCC1)c1ccco1 | 3.3 | -3
CCOC(=O)C1=C(CN(C)c2ccccc2)NC(=O)NC1c1ccc(C)cc1 (stereo unspecified) | -0.3 | 10
O=C(Cn1cnc2ccccc2c1=O)N1CCCCCC1 | 0.7 | -16
CCSc1nnc(Cc2ccccc2)o1 | 0.5 | 11
Cc1ccc(CNC(=O)CCS(=O)(=O)c2ccc3c(c2)NC(=O)CO3)cc1 | nt | -8
Cc1onc(-c2c(F)cccc2Cl)c1C(=O)N(C)C1CCCCC1 | -1.3 | nt
CC(=O)n1nccc1-c1sc2ccc(Cl)cc2c1C | 0.3 | nt
COc1ccc(-n2cc(C(=O)Nc3cccc(SC)c3)nn2)cc1 | nt | -16
CCC1=Nc2cc(C(=O)O)ccc2Sc2ccccc21 | nt | 11
CC(=O)N/C(=C\c1ccc(F)cc1)C(=O)N(C)C | -1.9 | 4
CSc1nc(/N=C/N(C)C)n(-c2ccccc2)n1 | 0.2 | nt
Cc1c(C(=O)O)sc2nc3n(c(=O)c12)CCC(C)CC3 (stereo unspecified) | nt | 7
Cc1cc(NC(=O)COc2ccccc2)no1 | 1.8 | 11
CC(C)NC(=O)C1CCN(C(=O)NCc2ccccc2)CC1 | -9.0 | 13
COC(=O)c1c(NC(C)=O)sc2c1CCS2 | nt | 24
O=C(Nc1cccc(F)c1)N1C2CCC1CC(O)(c1cccnc1)C2 (stereo unspecified) | -0.8 | 12
Cc1ccccc1NC(=O)CCCn1sc2ccccc2c1=O | 1.4 | 7
Cc1cc(C)n2ncc(/C(N)=N/O)c2n1 | 0.4 | nt
C=CCNC(=O)CN1CCN(S(=O)(=O)c2cc(C)ccc2C)CC1 | nt | 0
CC(=O)Nc1ccc(Cl)cc1C(=O)OCC(=O)c1ccc(Br)cc1 | -6.5 | nt
N#CC1=C(SCC(=O)N2CCc3ccccc32)NC2=C(C(=O)CCC2)C1c1cccnc1 (stereo unspecified) | nt | 0
O=C(CCCN1Cc2ccccc2C1)c1ccc(F)cc1 | -2.0 | 17
Cc1cc(/C(N)=N/O)cc(/C(N)=N/O)c1 | -0.7 | nt
O=C(CSc1nc2c(c(=O)n1-c1ccccc1)SCC2)NCc1ccccc1 | nt | 22
O=C(O)c1cc(N2C(=O)C3C4C=CC(CC4)C3C2=O)ccc1Cl (stereo unspecified) | -1.0 | nt
Cc1ccc(SCc2cc(=O)[nH]c(=O)[nH]2)cc1 | -2.1 | nt
CN(C(=O)COc1ccc(Oc2ccccc2)cc1)C1CCS(=O)(=O)C1 (stereo unspecified) | -1.5 | nt
COc1ccc(-c2cc3c(S(=O)(=O)c4ccccc4)cc(NC(=O)c4ccco4)cc3n2C)cc1 | 10 | 3
CC1=CCC(c2cnc(-c3ccccc3)c(C)c2)N(C)C1c1ccccc1 (stereo unspecified) | -1.2 | 5
O=C(c1ccco1)N1CCN(C(=O)C2c3ccccc3C(=O)N3CCc4ccccc4C23)CC1 (stereo unspecified) | nt | -22
O=C(NC1CCN(C(=O)c2ccc(Cl)cc2Cl)CC1)c1ccccc1 | 0.2 | nt
N#Cc1nc(-c2ccccc2)oc1NCc1ccccc1 | 3.7 | -31
Cc1c([N+](=O)[O-])c(/C=C/N(C)C)nn1C | 0.0 | nt

The list is partial. The share of hits here may be higher or lower than overall.
